Screens from PubChem BioAssay.
miR-21 FLuc – miR-21 reporter, rising signal; HeLa miR-21 FLuc reporter, luciferase, 48 h; 340,000 tested, under 10 active; Potency, µM (series often up to 38.3 µM), inactives show top-dose reporter change, positive = more light; active = well fitted rising curve with a large enough effect; inconclusive = small, poorly fitted or top-dose-only effect; inactive = no such curve, though single readings can be large or run the other way;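 note: % of control where 0% means no effect; miR-21 action dims this reporter so a rising signal means less miR-21 action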
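HeLa cells endogenously expressing miR-21, stably carrying CMV-driven firefly luciferase with a downstream miR-21 binding site, 2000 cells/well. Titrations up to approximately 40 uM, 48 hours; luciferase luminescence read.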
Active calls of the source: *; ? = inconclusive. Only part of the results is shown (hit frequency here may not be typical).

canonical_smiles	miR-21 FLuc
CCOc1ccc(N(C(C)C(=O)NCCSc2ccc(Cl)cc2)S(C)(=O)=O)cc1 (stereo not drawn)	16.5%
Cc1cc(C)c2c(-n3cccc3)c(C(=O)NCc3cccc(F)c3)sc2n1	-11.5%
COCCCNc1nc2c(c(=O)n(Cc3ccccc3)c(=O)n2C)n1C	0.4%
Cc1ccc2nc(/C(C#N)=C/c3ccc(-c4ccc(F)cc4F)o3)[nH]c2c1	2.5%
Cc1ccc(C)c(Nc2nn3c(=O)c4ccc(C(=O)NCCC5=CCCCC5)cc4nc3s2)c1	-0.2%
COc1ccc(-n2c(SCc3ccccc3)nc3c([nH]c4ccccc43)c2=O)cc1	-8.3%
COc1cccc(CSc2nc3n(n2)C(c2cccnc2)C(C(=O)Nc2ccccc2C)=C(C)N3)c1 (stereo not drawn)	0.5%
COc1ccc(-c2noc(COc3ccc(Br)cc3C)n2)cc1OC	-15.0%
O=C(Nc1ccc(C(F)(F)F)cc1)c1cc(S(=O)(=O)NC2CCCCCC2)ccc1F	23.3%
CCc1ccc(NCc2cccn2-c2nnc(N3CCCCCC3)s2)cc1	-22.3%
Cc1cccn2c(=O)cc(CSc3nnc(NC(=O)COc4ccccc4)s3)nc12	-2.2%
CCCCn1c(CN2CCN(c3ccc(OC)cc3)CC2)nc2c1c(=O)[nH]c(=O)n2C	-12.1%
Cc1ccc2c(c1)N(C(=O)N1CCC(C(=O)NCCC3=CCCCC3)CC1)CC(C)O2 (stereo not drawn)	-38.0%
COc1cc2ccccc2cc1C(=O)N1CCN(c2nc3c(F)cc(F)cc3s2)CC1	7.2%
CCOCCn1ccc2c(OCC(=O)NCc3ccc(F)cc3)cccc2c1=O	2.3%
O=C(Nc1ccc(F)cc1)c1cccc(N2CCCS2(=O)=O)c1	-16.0%
COc1cc(C(=O)NC(c2ccc(Cl)cc2)c2cc(Cl)c3cccnc3c2O)cc(OC)c1OC (stereo not drawn)	?
Cc1cccc(NC(=O)N2CCC(n3c(C)nc4cccnc43)CC2)c1	-29.0%
Cc1ccc(CCNc2nc3ccccc3c3nc(-c4cccnc4)nn23)cc1	1.2%
COc1cccc(NC(=O)Cn2c(=O)n(-c3ccc(C)cc3)c(=O)c3ccccc32)c1	-24.0%
CC(=O)Nc1ccc(S(=O)(=O)NCCc2csc3nc(-c4cccc(C)c4)nn23)cc1	6.8%
CCc1cccc(CC)c1NC(=O)Cc1csc(C)n1	2.3%
CCCCNC(=O)c1ccc2c(c1)NC(=O)C(C(C)C)N2 (stereo not drawn)	-5.7%
CC(=O)N1CCCc2cc(S(=O)(=O)Nc3ccc(OC(F)(F)F)cc3)ccc21	-0.3%
CCC(C(=O)Nc1nnc2n1CCS2)c1ccccc1 (stereo not drawn)	2.3%
CCCOc1ccc(C2C(=O)N(C3CCCCCC3)CC(=O)N2Cc2ccccc2OC)cc1OC (stereo not drawn)	5.3%
COC(=O)c1ccc(Cl)cc1NC(=O)N1CCC(CN2CCC(C)CC2)CC1	-2.8%
Cn1c(=O)[nH]c(=O)c2c1nc(NCCc1ccccc1)n2Cc1ccc(F)cc1	-0.7%
COc1ccccc1N1CCN(C(=O)c2oc3ccccc3c2NC(=O)C(C)Oc2ccccc2)CC1 (stereo not drawn)	0.5%
Cn1c(-n2cccc2)c(-c2c(-c3ccccc3)[nH]c3c2c(=O)[nH]c(=O)n3C)c(=O)[nH]c1=O	-1.7%
CCOC(=O)c1ccccc1NC(=O)c1ccc2c(Cl)c3c(nc2c1)CCC3	-1.7%
Cc1ccnc(NS(=O)(=O)c2ccc(NC(=O)c3ccc(C)c(C)c3)cc2)n1	-17.2%
Cc1cc(C)c2c(C)c(C(=O)N3CCC(c4nc5ccccc5s4)CC3)oc2c1	-8.9%
COc1ccc(-c2nn3c(-c4ccccc4C)nnc3c3ccccc23)cc1	-10.4%
CCOc1ccc2c(c1)c(=O)c(C(=O)c1ccc(CC)cc1)cn2CC(=O)Nc1ccccc1OC	-1.6%
Cc1ccc(NC(=O)C(Cc2ccccc2)n2cccc2)c(C)c1 (stereo not drawn)	0.3%
COc1cccc(NC(=O)CSc2nnc(NC(=O)NC3CCCCC3)s2)c1	-40.0%
O=C(Cc1ccccc1F)N1CCC(c2nc3c(nnn3Cc3ccc(F)cc3)c(=O)[nH]2)CC1	12.2%
CCOc1ccccc1NC(=O)c1c(NCc2ccc(C)o2)sc2c1CCCCC2	-3.7%
COc1ccc(CNc2nc(-c3ccc(Cl)cc3)cc(C(F)(F)F)n2)cc1	19.8%
COc1ccc(-c2nn3c(=O)cc(CN4CCN(C(=O)Nc5ccc(C)c(Cl)c5)CC4)nc3s2)cc1	-0.6%
CCN(CC)c1ccc(NC(=O)CCCN2C(=O)C(c3ccccc3)Oc3cccnc32)c(C)c1 (stereo not drawn)	2.8%
Cc1ccc(NC(=O)CSc2nc3ccc(NC(=O)c4ccco4)cc3s2)c(C)c1	17.5%
CC(=O)c1ccc(NC(=O)c2ccc(-c3nc(COc4ccc(C)cc4)c(C)o3)cc2)cc1	?
COc1ccc2oc(=O)c(C(=O)Nc3ccc(C(=O)O)cc3)cc2c1	-11.0%
O=C(CCn1c(=O)c2ccccc2n(Cc2cccc(Cl)c2)c1=O)NCCc1ccccc1	-3.3%
CCOC(=O)c1[nH]c(C)c(C(=O)NCCc2ccccc2)c1C	7.5%
Cc1ccc(NC(=O)Cn2nc(N3CCN(c4ccccc4)CC3)ccc2=O)cc1F	-0.3%
Cc1ccc(CNC(=O)c2ccc3c(c2)nc2n3CCCC2)cc1	-61.7%
Cc1ccc(C(=O)Nc2ccc(Cl)c(-c3nc4ncccc4o3)c2)c(C)c1	-23.7%
CCCOC(=O)c1c(NC(=O)C(C)Sc2nc(-c3ccccc3)cc(C(F)(F)F)n2)sc(C(=O)N(C)C)c1C (stereo not drawn)	29.3%
COc1ccccc1NC(=O)CSc1nc2c(oc3ccccc32)c(=O)n1-c1ccccc1F	-23.0%
COc1ccc(F)cc1S(=O)(=O)NCCc1csc2nc(-c3cccc(C)c3)nn12	-10.3%
CC(=O)c1cccc(NS(=O)(=O)c2c(C)nc3sc(C)cn3c2=O)c1	11.1%
CC(C)(C)c1ccc(C(=O)Nc2c(C(=O)c3ccc(F)cc3)oc3ccccc23)cc1	-8.7%
COc1ccc(N2CCN(c3ncnc4onc(C)c34)CC2)cc1	16.1%
O=C(Cn1c(=O)n(Cc2cccs2)c(=O)c2cccnc21)Nc1ccc(F)cc1	2.5%
Cc1noc(/C=C/c2cccs2)c1S(=O)(=O)N1CCC(C(=O)Nc2ccc(F)c(Cl)c2)CC1	11.4%
COc1ccc(-c2[nH]c3c(c2-c2c(-n4cccc4)n(C)c(=O)[nH]c2=O)c(=O)[nH]c(=O)n3C)cc1F	0.7%
COc1ccc(NC(=O)c2ccc3nc(CCc4ccccc4)oc3c2)cc1	-30.3%

Continued.
SMILES,miR-21 FLuc
COc1ccc(-c2noc(CN3CCN(c4cccc(Cl)c4)CC3)n2)cc1,7.3%
Cc1cccc(Nc2sc(C(=O)c3ccc(Cl)cc3)c(N)c2C(N)=O)c1,2.4%
Cc1ccc(NC(=O)C(C)Sc2nc(=O)cc(N)n2-c2cccc(C)c2)cc1 (stereo not drawn),-12.3%
CCS(=O)(=O)N1CC(=O)N(c2ccc(C)c(C)c2)C(C)(C(=O)NC2CCCCCC2)C1 (stereo not drawn),-6.9%
Cc1nc(N2CCCC2)ncc1C(=O)Nc1ccc(OC(F)(F)F)cc1,12.7%
CC1(C)CC(=O)c2cc(-c3nc(-c4ccc(Cl)cc4)cs3)c(=O)n(-c3ccc(F)cc3)c2C1,-1.8%
Cc1ccc(OC(=O)c2cc(-c3ccc4c(c3)OCCO4)on2)cc1C,-2.8%
Cc1cccc(-c2nc(SCC(=O)N(C)c3ccccc3)c3c(=O)n(C)c(=O)n(C)c3n2)c1,-0.4%
Cc1cc(O)c(C(c2ccccc2)N2CCN(c3ccc(F)cc3)CC2)c(=O)n1Cc1ccco1 (stereo not drawn),0.4%
Cc1ccc(CN2CCc3nc(N4CCN(c5ncccn5)CC4)ncc3C2)cc1,29.1%
COc1ccc(-c2nc3nc(C)cc(C)n3c2Nc2c(C)cccc2C)cc1,25.6%
COC(=O)c1c(NC(=O)c2ccc(S(=O)(=O)N3CCCC(C)C3)cc2)sc2c1CCN(C(C)C)C2 (stereo not drawn),7.8%
COc1ccc(Cl)cc1NC(=O)Cn1cc2c(n1)CCC(C)C2 (stereo not drawn),-10.0%
Cc1ccc(CN(Cc2ccco2)C(=O)c2cccc(C)c2)cc1,9.6%
Cc1ccccc1OCc1ccc(-c2nc(C#N)c(N3CCN(c4cccc(Cl)c4)CC3)o2)o1,1.2%
COc1cccc(C(=O)Nc2ccc(-n3nncc3-c3ccccc3)cc2)c1,11.5%
Cc1ccc(-c2cn3c(n2)sc2cc(C(=O)NCCCc4ccccc4)ccc23)cc1,8.9%
Cc1ccc(C(=O)Nc2ccc3nc(N4CCCCC4)cc(C)c3c2)cc1F,?
COc1ccc(NS(=O)(=O)c2ccc3[nH]c4c(c3c2)CCCC4)cc1Cl,10.5%
Cc1ccc2c(c1)N(C(=O)N1CCC(C(=O)NCCc3ccccc3)CC1)CC(C)O2 (stereo not drawn),-1.5%
CC(C)Oc1ccccc1-c1nc(SCC(=O)c2ccc(F)cc2)n[nH]1,18.5%
COc1ccc(C)cc1NC(=O)C(NS(=O)(=O)c1cccc2nsnc12)c1ccccc1 (stereo not drawn),-0.2%
CCCCN(C)C(=O)CSc1nc2ccccc2nc1Cc1ccc(C)cc1,20.1%
O=C(Cn1c(SCc2cccc(F)c2)nc2ccncc21)Nc1ccc(Cl)cc1F,-2.9%
Cc1ccc2nc(N(Cc3cccnc3)C(=O)c3cccs3)sc2c1,-15.8%
Cc1cccc(N2CCN(C(=O)c3ccc(NC(=O)c4nsc5ccccc45)cc3)CC2C)c1 (stereo not drawn),15.6%
Cc1cc(C)cc(OCC(=O)N(Cc2ccc(C)o2)C2CCS(=O)(=O)C2)c1 (stereo not drawn),-0.7%
COc1ccc(N2CCN(c3ccc(-c4nc(-c5ccccc5)no4)cc3[N+](=O)[O-])CC2)cc1,-8.1%
COC(=O)c1c(NC(=O)CCCOc2cccc(C)c2)sc2c1CCC2,-0.8%
O=c1[nH]c2ccc(NCc3ccc(-c4ccccc4)o3)cc2[nH]1,7.6%
Cc1ccc(Nc2cc(C(=O)NCCc3ccccc3)c3ccccc3n2)c(C)c1,5.0%
O=C(NC1CCCC1)c1ccc2c(=O)n(Cc3ccccc3)c(SCc3ccc([N+](=O)[O-])cc3)nc2c1,-0.3%
CC(=O)Nc1ccc(S(=O)(=O)NCc2ccc3c(c2)CCN3C(C)=O)cc1,-8.2%
CCCOc1ccc(-c2nonc2NC(=O)c2ccco2)cc1OCCC,0.2%
Cc1ccc(C(=O)NC(=S)N(C)C2CCCCC2)cc1Br,-8.3%
Cc1ccc(C(C)C)c(OCC(=O)Nc2c(C(=O)c3ccc(F)cc3)oc3ccccc23)c1,-1.3%
Cc1ccc(C)c(N2CCN(C(=O)NCc3noc4ccc(C)cc34)CC2)c1,16.4%
Cc1nnc(SCc2cc(=O)c3ccccc3[nH]2)s1,-3.2%
Cc1ccc2nc(N3CCN(c4ccc(F)cc4)CC3)c3nnnn3c2c1,4.1%
Cc1ccc(Cl)cc1N(C)C(=O)Cn1nc(Cc2cccnc2)c2ccccc2c1=O,-8.7%
Cc1nc(-c2cccc(F)c2)sc1CCNC(=O)Cc1ccc(F)cc1,-2.0%
Cc1ccc(-c2nc3c(C)cccn3c2Nc2ccccc2C)s1,-1.4%
Cc1ccc(Cl)cc1Nc1nn2c(=O)c3ccc(C(=O)NC(C)c4ccccc4)cc3nc2s1 (stereo not drawn),3.1%
Cc1ccc(NC(=O)C(=O)NCCc2sc(-c3ccc(Cl)cc3)nc2C)cc1C,1.1%
O=C(COCc1cc(-c2cccs2)on1)N1CCN(c2ccccc2)CC1,-0.1%
Cc1cccc(-n2cc(-c3ccccc3)c3c(NC(C)C)ncnc32)c1,0.4%
Cc1cccc(Oc2nc3c(c(=O)n(C)c(=O)n3C)n2C)c1C,1.5%
O=C(Nc1cc(F)ccc1F)C1CCN(C(=O)c2cnn(-c3ccccc3)c2-n2cccc2)CC1,7.8%
CCOc1ccccc1NC(=O)Nc1nnc(N2CCCC(C)C2)s1 (stereo not drawn),4.1%

Filtered by structure, the entries above containing a thiophene ring, fused or not
SMILES,miR-21 FLuc
Cc1cc(C)c2c(-n3cccc3)c(C(=O)NCc3cccc(F)c3)sc2n1,-11.5%
CCOc1ccccc1NC(=O)c1c(NCc2ccc(C)o2)sc2c1CCCCC2,-3.7%
CCCOC(=O)c1c(NC(=O)C(C)Sc2nc(-c3ccccc3)cc(C(F)(F)F)n2)sc(C(=O)N(C)C)c1C (stereo not drawn),29.3%
O=C(Cn1c(=O)n(Cc2cccs2)c(=O)c2cccnc21)Nc1ccc(F)cc1,2.5%
Cc1noc(/C=C/c2cccs2)c1S(=O)(=O)N1CCC(C(=O)Nc2ccc(F)c(Cl)c2)CC1,11.4%
Cc1cccc(Nc2sc(C(=O)c3ccc(Cl)cc3)c(N)c2C(N)=O)c1,2.4%
COC(=O)c1c(NC(=O)c2ccc(S(=O)(=O)N3CCCC(C)C3)cc2)sc2c1CCN(C(C)C)C2 (stereo not drawn),7.8%
Cc1ccc2nc(N(Cc3cccnc3)C(=O)c3cccs3)sc2c1,-15.8%
COC(=O)c1c(NC(=O)CCCOc2cccc(C)c2)sc2c1CCC2,-0.8%
Cc1ccc(-c2nc3c(C)cccn3c2Nc2ccccc2C)s1,-1.4%
O=C(COCc1cc(-c2cccs2)on1)N1CCN(c2ccccc2)CC1,-0.1%
